Lassa entry inh – qHTS for Inhibitors of binding or entry into cells for Lassa Virus | AID 540256, 2011 | Potency, µM (top dose mostly 37.9 µM), without a hit: at the top dose activity change, negative = inhibition, most hits filed as inhibitors | Lassa virus pseudotype entry inhibition, cell reporter; control for the full effect not named in the record | 300,000 tested, 1.2% active; active means well fitted inhibition curve with a large enough effect; inconclusive means small, poorly fitted or top-dose-only effect, or effect the other way; inactive means flat fitted curve, though single readings scatter; tested in HEK293 cells; also: % is scaled to controls: 0 for no effect and ±100 for the full control effect; nearly all actives have a fitted effect of over 50% in size; luciferase read-out
SARS PLP yeast – qHTS of Yeast-based Assay for SARS-CoV PLP | 330,000 tested, 0.19% active | Potency, µM (highest dose often 32.9 µM), for inactives: top-dose activity, positive = growth rescue | S. cerevisiae expressing SARS-CoV PLpro, growth rescue; control for the full effect not named in the record; also: 0% is about no effect; nearly all actives have a fitted effect of over 55% in size; growth read by luminescence after 48 h
Cruzain noTriton – qHTS Assay for Promiscuous and Specific Inhibitors of Cruzain (without detergent) | purified cruzain, Z-FR-AMC fluorescence, no detergent | 200,000 tested, 2.3% active | Potency, µM, for inactives: max response, negative = inhibition, hits mostly inhibitors | Cruzipain (Trypanosoma cruzi), P25779 | AID 1476, 2009; active = well fitted curve in the direction sought with a large enough effect; inconclusive = small, poorly fitted or top-dose-only effect, or another doubt; inactive = no such curve, though single readings can be large; an effect the other way counts as inactive or inconclusive;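 also: plate controls were enzyme without inhibitor for no effect and buffer without enzyme for full effect; nearly all actives have a fitted effect of over 40% in size; top concentration of the series not given in the record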
Target sequence (P25779 123-467 limits assumed): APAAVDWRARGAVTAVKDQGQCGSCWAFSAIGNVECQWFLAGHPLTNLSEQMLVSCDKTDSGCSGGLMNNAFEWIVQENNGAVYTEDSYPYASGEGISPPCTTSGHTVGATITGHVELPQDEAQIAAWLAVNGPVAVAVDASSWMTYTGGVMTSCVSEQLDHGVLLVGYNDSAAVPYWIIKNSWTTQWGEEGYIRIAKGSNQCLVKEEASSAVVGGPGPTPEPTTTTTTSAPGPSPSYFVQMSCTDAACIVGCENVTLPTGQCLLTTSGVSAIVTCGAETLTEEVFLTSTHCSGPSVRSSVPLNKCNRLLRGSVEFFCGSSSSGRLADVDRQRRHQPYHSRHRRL
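Detergent-free condition (0.00005% Triton X-100) in acetate buffer pH 5.5 with DTT. 1.5 nM enzyme and compound were pre-mixed 15 min, then 2 uM Z-FR-AMC substrate added; reaction progress from fluorescence change between first and third reads (60 s).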
RE007 growth inh – qHTS Assay for Inhibitors of the HIV-1 protein Vpr | Potency, µM (top dose mostly 92.2 µM), without a hit: at the highest dose activity change, negative = less growth | AID 651644, 2012 | 360,000 tested, 0.21% active | S. pombe RE007 Vpr strain, BacTiter-Glo ATP luminescence, 24 h; control for the full effect not named in the record; active = well fitted falling curve with a large enough effect; inconclusive = small, poorly fitted or top-dose-only effect; inactive = no such curve, though single readings can be large or run the other way;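 also: % is scaled to controls: 0 for no effect and ±100 for the full control effect; nearly all actives have a fitted effect of over 50% in size; the assay follows cell death caused by Vpr and the record does not say whether a fall means rescue or toxicity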
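Fission yeast RE007 carrying one integrated HIV-1 vpr copy, seeded at OD 0.01 in PMG+AL medium with 23 nL pinned compound. Grown 24 h at 30 degrees; viability read by BacTiter-Glo luminescence after 5 min.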
Cruzain Triton – qHTS Assay for Promiscuous and Specific Inhibitors of Cruzain (with detergent). purified cruzain, Z-FR-AMC fluorescence, 0.01% Triton. 200,000 tested, 0.43% active. Potency, µM, for the others: max response, negative = inhibition, most hits filed as inhibitors. Cruzipain (Trypanosoma cruzi), P25779; active = well fitted curve in the direction sought with a large enough effect; inconclusive = small, poorly fitted or top-dose-only effect, or another doubt; inactive = no such curve, though single readings can be large; an effect the other way counts as inactive or inconclusive;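 also: plate controls were neutral wells for no effect and buffer without enzyme for full effect; nearly all actives have a fitted effect of over 40% in size; top concentration of the series not given in the record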
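Enzyme 1.5 nM, Z-FR-AMC 2 uM, NaOAc 100 mM pH 5.5, DTT 5 mM, Triton X-100 0.01%; 15 min RT compound preincubation; kinetic ex360/em450, 60 s delta.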
2A StopGo – High Throughput Screening for Foot and Mouth Disease Virus Antivirals; human cells with a luciferase reporter of 2A StopGo recoding; control for the full effect not named in the record; Potency, µM (titrated, usually from 57.9 µM), inactives show at the highest dose signal change, negative = less light; 410,000 tested, 1.2% active; AID 1159524, 2015; active = well fitted falling curve with a large enough effect; inconclusive = small, poorly fitted or top-dose-only effect; inactive = no such curve, though single readings can be large or run the other way; tested in HEK293T cells; also: % is scaled to controls: 0 for no effect and ±100 for the full control effect; nearly all actives have a fitted effect of over 45% in size; luciferase light after 4 h
MARV entry inh – qHTS for inhibitors of binding or entry into cells for Marburg Virus | Potency, µM (doses to about 37.8 µM), without a hit: top-dose activity change, negative = inhibition, hits mostly inhibitors | Marburg virus pseudotyped entry inhibition, cell reporter; control for the full effect not named in the record; about a third of the inactives were read at about 46 µM | AID 540276, 2011 | 300,000 tested, 1.8% active; active = well fitted inhibition curve with a large enough effect; inconclusive = small, poorly fitted or top-dose-only effect, or effect the other way; inactive = flat fitted curve, though single readings scatter; tested in HEK293 cells; about a fifth of its hits are not listed in these tables; also: % is scaled to controls: 0 for no effect and ±100 for the full control effect; luciferase read-out
NS1 function inh – qHTS Assay for Inhibitors of Influenza NS1 Protein Function | Potency, µM (titrated, usually from 46.1 µM), for the others: top-dose activity, positive = more growth | 270,000 tested, 0.4% active | S. cerevisiae slowed by influenza A NS1, growth recovery by OD600; also: actives are rising curves; nearly all actives have a fitted effect of over 50% in size
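Compounds were scored for reversing the slow growth caused by influenza A NS1 in S. cerevisiae, measured by optical density at 600 nm. Assay medium contained 2% galactose at pH 6.0; NS1-free yeast of the same strain were the positive control.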
The depositor's hits bear a star; ? = inconclusive; . = no result given; [ ] = another dose, or the depositor's remark. Unless noted, calls follow the shape of the dose curve; as a rule, active means well fitted rising curve with a large enough effect; inconclusive means small, poorly fitted or top-dose-only effect; inactive means no such curve, though single readings can be large or run the other way. Potency is read from the fitted curve at half-maximal effect.

molecule,Lassa entry inh,2A StopGo,MARV entry inh,NS1 function inh,Cruzain noTriton,Cruzain Triton,SARS PLP yeast,RE007 growth inh
OC1(CC#CCN2CCCCC2)c2ccccc2-c2ccccc21,.,-17%,.,2%,.,.,-1%,-13%
COc1cc(/C=N/NC(=O)C(=O)N2CCCCCC2)ccc1O,1%,19%,7%,-8%,.,.,1%,6%
O=C(Nc1ccc(OC(F)F)c(Cl)c1)Nc1ccc2c(c1)OCO2,-25%,-9%,-3%,-5%,?,5.5%,-11%,2%
O=C(Cn1c(=O)n(CCc2ccccc2)c(=O)c2c3c(sc21)CCCC3)Nc1ccc(F)c(F)c1,-14%[46.1 µM],?,-11%[46.1 µM],.,-1%,-1.0%,.,.
CS(=O)(=O)N(CC(=O)Nc1ccccc1Sc1ccccc1)c1ccc(F)cc1,-15%,-25%,-16%,24%,?,-11%,0%,2%
CC1(C)CC(=O)C2=C(C1)Nc1nc(SCCN3CCOCC3)[nH]c(=O)c1C2c1cccs1 (stereo not drawn),8%,-1%,1%,-4%,3%,1.8%,7%,-17%
CCC(=O)NCCc1nc2cc(NC(=O)c3ccc(Cl)cc3)ccc2n1C,?,-16%,?,0%,.,.,-1%,-6%
Cc1cccc(OCC(=O)NC2CCCc3ccccc32)c1C (stereo not drawn),1%,4%,-20%,-5%,-5%,-7.9%,8%,5%
Cc1cc2c(nn1)CCc1c-2no[n+]1[O-],?,2%,13%[46.1 µM],5%,.,.,0%,4%
CC(=O)c1sc(NC(=O)c2ccccc2F)nc1-c1ccccc1,-19%,38%[activator],3%[46.1 µM],.,.,.,-4%,-1%
O=C(CCn1ccc2cc(S(=O)(=O)N3CCCC3)ccc21)NCc1ccccc1Cl,-14%[46.1 µM],11%,.,.,-6%,-6.8%,.,.
CCc1sc(N(C(=O)Cc2ccccc2)c2ccc(F)cc2)nc1-c1ccccc1,-19%,0%,2%,10%,-22%,1.5%,-5%,14%
CCOc1ccccc1NC(=O)c1ccc2c(c1)C(=O)N(CC)C2=O,3%,-11%,4%,20%,.,.,4%,-19%
CCCCOC(=O)Nc1nc2ccccc2s1,?,-7%,-25%[46.1 µM],0%,?,6.7%,-1%,15%
Cc1nn(CC(=O)NCCN2CCOCC2)c(C)c1[N+](=O)[O-],-14%,-8%,-5%,3%,6%,2.8%,3%,-4%
CC(C)c1ccc(C2CC(=O)N3CN(C)CSC3=C2C#N)cc1 (stereo not drawn),.,-25%,-1%,-47%,-4%,0.8%,-8%,-13%
Cc1cc2oc(=O)cc(CN3CCCCC3C)c2c(C)c1Cl (stereo not drawn),8%,11%,-23%,-50%,-18%,-4.0%,-2%,-5%
COc1ccc(S(=O)(=O)n2cnc3cc(C)c(C)cc32)cc1C,-28%,.,?,-39%,-9%,-7.1%,-4%,3%
Cc1oc2ccc(O)c(CN3CCCCC3)c2c1C(=O)Nc1cccc(C(F)(F)F)c1,?,-29%,10µM*,.,?,-4.8%,.,.
CCOc1ccc(NC(=O)Cc2coc3ccc(C)cc23)cc1,?,-13%,-12%[46.1 µM],.,14%,-0.1%,.,.
CC(Sc1nnc(C2CC2)n1-c1ccccc1)C(=O)N1CCCC1 (stereo not drawn),-7%,-7%,9%[46.1 µM],.,.,.,0%,-9%
Cc1cc(NS(=O)(=O)c2ccc(NC(=S)NC(=O)c3ccccc3)cc2)no1,-11%,21%,.,23%,-5%,-8.2%,7%,-12%
c1ccc(-c2nc3ccccn3c2NCc2ccc3c(c2)OCO3)cc1,0%,-17%,28%,-168%,0%,-0.9%,1%,-28%
Cc1ccc2nc3c(cc(C#N)c(=O)n3CC3CCCO3)c(=O)n2c1 (stereo not drawn),.,.,.,14%,4%,-20%,-3%,.
CC(C)C(=O)Nc1ccc2c3c(cccc13)CC2,?,-17%,-7%,?,-2%,0.1%,2%,0%
COc1ccccc1OCc1nnc(SCC(=O)Nc2ccc(C)cc2)n1C,0%,-22%,11%,-14%,8%,3.2%,-1%,-1%
CCCSc1nsc(NC(=O)C(c2ccccc2)c2ccccc2)n1,?,?,?,17%,?,-2.8%,4%,2%
COc1cc(C(=O)NC(=S)Nc2ccc(Cl)c(C(=O)O)c2)cc(OC)c1OC,?,2%,4%,18%,10%,1.0%,1%,5%
COc1ccc(S(=O)(=O)NCCc2csc3nc(-c4ccccc4)nn23)cc1OC,9%[46.1 µM],40%[activator],.,.,-13%,-1.9%,.,.
Cc1ccc2oc(-c3cccc(N)c3)nc2c1,?,-34%,13µM*,.,.,.,-10%,32µM*

Some values from the list.
CC(C)C(=O)Nc1ccc2c3c(cccc13)CC2 @ MARV entry inh: -7%
COc1ccccc1OCc1nnc(SCC(=O)Nc2ccc(C)cc2)n1C @ Cruzain noTriton: 8%
CCCSc1nsc(NC(=O)C(c2ccccc2)c2ccccc2)n1 @ SARS PLP yeast: 4%
Cc1cc(NS(=O)(=O)c2ccc(NC(=S)NC(=O)c3ccccc3)cc2)no1 @ RE007 growth inh: -12%

Going on with the list.
molecule,Lassa entry inh,2A StopGo,MARV entry inh,NS1 function inh,Cruzain noTriton,Cruzain Triton,SARS PLP yeast,RE007 growth inh
Cc1cc2oc(C(=O)Nc3ccc(S(N)(=O)=O)cc3)c(C)c2cc1Cl,-16%[46.1 µM],-21%,?,1%,.,.,-1%,7%
CC[n+]1c(/C=C2/C=C(C)CC(C)(C)C2)sc2ccc(OC)cc21,?,20µM*,?,-7%,-10%,-3.1%,-15%,?
COc1ccc(NC(=O)c2cc3cc(OC)ccc3oc2=N)cc1,-9%,15%,-36%,13%,?,-2.7%,4%,-20%
CC(=O)[C@@H]1[C@@H](C(=O)c2ccccc2)[C@]2(C(=O)Nc3ccccc32)[C@H]2C=Cc3cc(F)ccc3N12,-3%,-19%,?,11%,-5%,-7.3%,-12%,-19%
CCNS(=O)(=O)c1ccc(NC(=O)c2ccccc2)cc1,-3%,-7%,13%,2%,-9%,1.4%,5%,11%
O=C(NN1CCN(Cc2ccccc2Cl)CC1)c1ccc(Br)cc1,-17%,?,-2%[46.1 µM],3%,.,.,3%,6%
CC1CCCCC1NC(=O)c1cc2ccccc2o1 (stereo not drawn),21%,22%,-1%,0%,4%,-3.3%,10%,-6%
CCOC(=O)c1ccc(NC(=O)COc2ccccc2CNCCO)cc1,.,-10%,.,3%,.,.,-1%,5%
Cc1ccsc1CN(C(=O)COc1cccc(C)c1C)C1CCS(=O)(=O)C1 (stereo not drawn),4%[46.1 µM],-9%,-35%[46.1 µM],.,16%,-4.8%,.,.
COc1cccc(/C=C2/SC(=S)N(CC(=O)NNC(=O)c3ccccc3O)C2=O)c1,-2%[46.1 µM],31%[activator],-4%[46.1 µM],8%,.,.,4%,-6%

For reference, some entries already given:
molecule,Lassa entry inh,2A StopGo,MARV entry inh,NS1 function inh,Cruzain noTriton,Cruzain Triton,SARS PLP yeast,RE007 growth inh
Cc1ccsc1CN(C(=O)COc1cccc(C)c1C)C1CCS(=O)(=O)C1 (stereo not drawn),4%[46.1 µM],-9%,-35%[46.1 µM],.,16%,-4.8%,.,.
COc1cccc(/C=C2/SC(=S)N(CC(=O)NNC(=O)c3ccccc3O)C2=O)c1,-2%[46.1 µM],31%[activator],-4%[46.1 µM],8%,.,.,4%,-6%

Other entries:
molecule,Lassa entry inh,2A StopGo,MARV entry inh,NS1 function inh,Cruzain noTriton,Cruzain Triton,SARS PLP yeast,RE007 growth inh
Cc1ccc(C)c(N2CCN(c3nc4ccccc4c(=O)n3Cc3ccccc3)CC2)c1,.,0%,1%,5%,?,-0.7%,1%,-1%
FCCCOc1ccc(-c2ccnc3ncnn23)cc1,?,0%,18%[46.1 µM],-2%,.,.,-1%,8%
O=S1(=O)CCC(NC(=S)N2CCCCCC2)C1 (stereo not drawn),1%,0%,-5%,-1%,-5%,4.8%,12%,4%
Cc1cc(NC(=O)CSc2nnc(-c3cccnc3)n2Cc2ccccc2)no1,?,-11%,6%,.,.,.,7%,10%
COc1ccc(N2C(=O)CCSC23C(=O)N(Cc2ccc(F)cc2)c2ccccc23)cc1 (stereo not drawn),?,-14%,.,.,6%,-3.8%,.,.
O=[N+]([O-])c1cccc(Cl)c1NCCNc1ncc(C(F)(F)F)cc1Cl,-19%,-15%,?,8%,4%,-10%,1%,9%
O=C(CCN1CCC(c2ccccc2)C1)c1ccccc1 (stereo not drawn),-24%,15%,-19%,?,-2%,5.5%,0%,-15%
CNC(=O)CC12CC3CC(CC(C3)C1)C2,14%,.,11%,3%,-3%,4.5%,?,11%
COc1ccc(C(=O)/C(=C/c2cccs2)c2nc3ccccc3o2)cc1,-2%,-6%,?,-3%,-12%,7.8%,21%,4%
O=C(Nc1ccccc1N1CCCC1)c1ccccc1F,0%[46.1 µM],-26%,9%[46.1 µM],-13%,.,.,2%,-19%
CCN(CC)CCNC(=O)c1ccc2c(=O)n3nc(Nc4cccc(Cl)c4C)sc3nc2c1,?,-1%,.,.,3%,-2.1%,.,.
Cc1ccccc1NC(=O)Cn1nc(-c2ccccc2)nc(Cc2ccccc2)c1=O,?,0%,.,.,-8%,0.5%,.,.
